Assay outcomes from PubChem BioAssay.
ClpP mod: qHTS Assay for Activators of ClpP | hit rate 1.9% among 340,000 | purified B. subtilis ClpP, FRET peptide cleavage, 20 min | AID 651965, 2013 | Potency, µM (doses to about 57.5 µM), without a hit: at the highest dose activity change, negative = active; active = well fitted falling curve with a large enough effect; inconclusive = small, poorly fitted or top-dose-only effect; inactive = no such curve, though single readings can be large or run the other way; further: potency means the concentration at half of the fitted maximal effect; the source files actives as falling curves though it sought activators and does not explain the sign; nearly all actives have a fitted effect of over 65% in size; many hits overshoot -100%
Target sequence (P80244 whole entry, looked up): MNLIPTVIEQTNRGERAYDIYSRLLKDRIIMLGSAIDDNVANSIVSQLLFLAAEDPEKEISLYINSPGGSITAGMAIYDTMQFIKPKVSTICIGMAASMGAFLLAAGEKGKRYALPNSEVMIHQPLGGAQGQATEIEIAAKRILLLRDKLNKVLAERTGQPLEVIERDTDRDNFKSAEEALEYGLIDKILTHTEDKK
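Purified B. subtilis ClpP, 10 microg/mL final in Tris/HCl pH8 with KCl, BSA, glycerol and Tween-20, cleaved an Abz/nitrotyrosine-quenched decapeptide. Fluorescence (ex 320, em 430) was read at 0 and 20 min at room temperature. Delta was normalized to 5.8 microM ADEP and DMSO/no-enzyme controls.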
gsp antagonist: qHTS for Antagonists of gsp, the Etiologic Mutation Responsible for Fibrous Dysplasia/McCune-Albright Syndrome: qHTS; gsp-mutant cells, cAMP HTRF, 30 min; control for the full effect not named in the record; Potency, µM (titrated, usually from 76.9 µM), for inactives: top-dose activity change, negative = inhibition, usual class: inhibitors; hit rate 0.4% among 340,000; active = falling curve of any shape with a large fitted effect; inconclusive = falling curve, mostly with a smaller effect; inactive = flat or rising curve; cell line not stated here;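 further: intracellular cAMP measured with PDE inhibitor Ro 20-1724 present during compound exposure; potency means the concentration at half of the fitted maximal effect; on the % scale 0 is the no-effect control and ±100 the full control effect; nearly all actives have a fitted effect of over 65% in size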
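G418-selected cells were plated in DMEM/10% FBS for 16-24 h at 37C, then treated with compounds plus the PDE inhibitor […] (300 uM solution added) for 30 min at 37C. Intracellular cAMP was measured by HTRF after 30 min lysis at room temperature.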
Sfp inh: qHTS Assay for Inhibitors of Bacillus subtilis Sfp phosphopantetheinyl transferase (PPTase); Biochemical Sfp PPTase activity, qHTS; Potency, µM, for inactives: max response, negative = inhibition, most hits filed as inhibitors; hit rate 3.5% among 310,000; AID 1490, 2009; active means well fitted inhibition curve with a large enough effect; inconclusive means small, poorly fitted or top-dose-only effect, or another doubt; inactive means no such curve, though single readings can be large or run the other way;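 further: the enzyme is Sfp with the accession as filed and its product quenches rhodamine fluorescence; potency means the concentration at half of the fitted maximal effect; 0% = enzyme reaction without inhibitor and -100% = no enzyme wells; top concentration of the series not given in the record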
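Fluorescence-quenching assay: 15 nM Sfp-PPTase preincubated 15 min at room temperature with compound, then 5 uM rhodamine-CoA and 12.5 uM BHQ-2-labelled YbbR peptide added. Fluorescence (ex 525/em 598 nm) read at start and after 30 min; difference gives rate.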
D2 ag: Beta-Arrestin HTS for Positive Allosteric Modulators of the Human D2 Dopamine Receptor: Agonists | D(2) dopamine receptor (Homo sapiens), P14416 | DiscoveRx PathHunter D2 beta-arrestin, luminescence, 90 min; 100% = 57 uM dopamine signal | hit rate 0.084% among 360,000 | activation, % (test concentration not listed); in the data active = activation above about 40%; inconclusive = about 15% to 40%; inactive = below about 15%; further: compound concentration not given in the record; the text of the record calls up to 30% inactive
Target sequence (P14416 whole entry, looked up): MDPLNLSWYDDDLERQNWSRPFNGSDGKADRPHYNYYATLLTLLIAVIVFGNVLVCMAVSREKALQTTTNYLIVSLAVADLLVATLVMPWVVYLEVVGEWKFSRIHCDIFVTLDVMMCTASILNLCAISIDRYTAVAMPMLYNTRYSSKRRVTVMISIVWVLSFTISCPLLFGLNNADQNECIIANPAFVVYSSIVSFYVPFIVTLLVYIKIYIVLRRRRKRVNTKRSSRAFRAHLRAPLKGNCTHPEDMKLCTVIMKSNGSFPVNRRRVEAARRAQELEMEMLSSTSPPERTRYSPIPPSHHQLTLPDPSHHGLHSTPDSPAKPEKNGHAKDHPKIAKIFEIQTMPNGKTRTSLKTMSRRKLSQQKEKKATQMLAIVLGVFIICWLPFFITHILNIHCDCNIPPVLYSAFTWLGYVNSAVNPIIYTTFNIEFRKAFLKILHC
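Agonist mode: compounds alone added to overnight-plated D2 PathHunter cells for 90 min at 37 C, with 57 uM final dopamine (EC100) defining full response. Beta-arrestin recruitment detected by chemiluminescent reagent, read after 1 h at ambient temperature.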
PINK1 modulator: A Quantitative High throughput Screen to Identify Chemical Modulators of PINK1 Expression; PINK1 immunofluorescence, high-content cytometry, 24 h; Potency, µM (titrated, usually from 76.6 µM), without a hit: top-dose activation (PINK1 increase), hits mostly activators; hit rate 0.2% among 410,000; AID 624263, 2012; active = well fitted activation curve with a large enough effect; inconclusive = small, poorly fitted or top-dose-only effect; inactive = flat fitted curve, though single readings scatter; cell line not stated here;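 further: potency means the concentration at half of the fitted maximal effect; % of control where 0% means no effect; nearly all actives have a fitted effect of over 65% in size; a mitochondrial uncoupler was the plate control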
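PINK1 protein level read as immunofluorescence by microplate cytometer in a fixed, stained stable cell line after 24 h exposure to five compound concentrations, with CCCP as control.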
Menin-MLL FL inh: qHTS Assay for Inhibitors Targeting the Menin-MLL Interaction in MLL Related Leukemias: Competition With Fluorescein Labeled MLL-derived Peptide; Fluorescence polarization, fluorescein-MLL peptide displacement from menin; FP activity change, % at 61.4 µM; 290,000 tested, under 10 active; AID 1766, 2009; inconclusive = falling polarisation curve, or a change in total fluorescence; inactive = total fluorescence flat and polarisation flat or rising; no compound was filed as active; the % refers to the polarisation; negative = inhibition;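 further: % of control where 0% means no effect; inhibitors lower the polarisation; unlabelled MLL peptide was the positive control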
gsp agonist: qHTS for Agonist of gsp, the Etiologic Mutation Responsible for Fibrous Dysplasia/McCune-Albright Syndrome: qHTS; gsp mutant cells, cAMP HTRF, 30 min; control for the full effect not named in the record; Potency, µM (series often up to 76.9 µM), without a hit: at the top dose activation (cAMP increase), usual class: activators; AID 624287, 2012; hit rate 0.13% among 340,000; active = well fitted activation curve with a large enough effect; inconclusive = small, poorly fitted or top-dose-only effect, or another doubt; inactive = no such curve, though single readings can be large or run the other way; cell line not stated here;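 further: phosphodiesterase inhibitor Ro 20-1724 added with compounds to block cAMP breakdown; potency means the concentration at half of the fitted maximal effect; nearly all actives have a fitted effect of over 60% in size; about a fifth of the inactives were tested at one dose only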
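Cells stably selected in G418 were plated at 2000/well, grown 16-24 hr, then given compounds in DMSO with the PDE inhibitor […] (300 uM solution added) for 30 min at 37C; cAMP was read by HTRF.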
Numbers without * were called inactive; ? = inconclusive; nt = not tested or not shown; & = joins results of further samples; [ ] = dose if it differs, or a comment.

canonical_smiles	ClpP mod	gsp antagonist	Sfp inh	D2 ag	PINK1 modulator	Menin-MLL FL inh	gsp agonist
COc1cccc(-c2nnc(SCC(=O)Nc3ccc(OC)c(OC)c3)n2N)c1	1.7%	0%	16%	-0.5	0.3%	3.0	2%
CCOC(=O)CSc1nc2cc(S(=O)(=O)N3CCOCC3)ccc2n1CC	nt	-18%	nt	-1.9	-3.6%	nt	19%[15.4 µM]
CCc1cc2c(=O)c(Oc3ccccc3)c(C)oc2cc1O	7.9µM*	?	8%	-3.4	1.9%	4.3	-8%
CC(/C=N/NC(=O)Cc1cccn1C)=C\c1ccccc1	1.0%	3%	7%	1.1	-1.9%	3.6	?
O=C(O)CN1C(=O)/C(=C\c2cccc(OC(=O)c3ccco3)c2)SC1=S	nt	6%	-9%	-3.0	2.0%	-0.1	18%
CCCC[n+]1c(C)sc2ccc(C)cc21	2.1%	14%	-10%	-6.9	0.7%	-2.6	-2%
O=C1CSC(=S)N1/N=C/c1cccc(C(F)(F)F)c1	0.1%	-1%	7%	7.9	0.7%	11	-5%
COc1ccc(NC(=O)c2cccc3c(-c4ccc(O)c(OC)c4)coc23)cc1	-7.0%	nt	nt	7.7	4.4%	nt	nt
CCOc1ccccc1NC(=O)CNC(=O)CNC(=O)Cc1ccccc1	-2.2%	6%	16%	-2.0	-0.1%	nt	-47%[inhibitor]
O=C(O)Cn1c(=O)c2c3c(sc2n(Cc2ccc(Cl)cc2Cl)c1=O)CCCC3	nt	-10%	-1%	1.5	-1.7%	3.3	6%[15.4 µM]
O=C([O-])c1ccccc1-[n+]1c(-c2ccccc2)cc(-c2ccccc2)cc1-c1ccccc1	-20%	-2%	nt	-1.9	3.0%	nt	nt
COc1ccc(N=Cc2nc(-c3ccco3)oc2O)cc1	1.3%	2%[15.4 µM]	10%	-5.6	-0.4%	1.8	-21%
COc1ccc(C(=O)OCc2ccc(C)cc2)cc1S(=O)(=O)N1CCOCC1	-1.5%	-8%	nt	2.6	2.6%	nt	-3%
COc1cnc(-c2cccc(C(F)(F)F)c2)c(NC(=O)c2cc3ccccc3s2)n1	?	nt	nt	0.9	3.7%	nt	nt
NC(=O)C1CCN(C(=O)/C=C/c2ccco2)CC1	-5.0%	-5%	?	-5.6	7.6%	-0.6	23%
Cc1cccc(N2CCN(C(=O)c3ccc4ncsc4c3)CC2)c1C	-2.1%	4%	-29%	0.0	4.2%	1.5	22%
Cc1c(Cl)cccc1NC(=S)NCCc1ccc(C(F)(F)F)cc1	nt	-15%	-8%	3.6	?	-2.9	-1%[15.4 µM]
COc1ccc(CCNC2=CC(=O)CCC2)cc1OC	0.7%	nt	nt	-1.9	1.8%	nt	nt
OC(c1ccc(Cl)c(Cl)c1)c1ncc(-c2cccc(F)c2)[nH]1 (stereo unspecified)	-1.8%	nt	nt	2.2	1.7%	nt	nt
CN1CCN(c2nc(-c3ccco3)cc(C(F)(F)F)n2)CC1	-30%	11%	1%	-3.8	-2.7%[38.3 µM]	6.1	1%
COc1ccccc1CCC(=O)Nc1ccc2c(c1)c(=O)n(C)n2Cc1ccc(F)cc1	4.5%	nt	nt	1.2	0.7%	nt	nt
CN1CCC(CO)(Cc2ccccc2)CC1	-0.1%	8%	24%	2.1	-0.8%	-4.8	7%
CC(=O)N1CC2(C)CN(C(C)=O)CC(C)(C1)C2=O	-1.1%	4%	13%	-3.3	-0.6%	1.7	-3%
CC(C)c1nc(=S)c2ccccc2[nH]1	-0.5%	1%	-15%	-4.5	-1.4%	6.9	?
CC(=O)Nc1ccc(NC(=O)CSc2nnc(NC(=O)Cc3ccc(F)cc3)s2)cc1	0.5%	12%	4%	-1.7	3.5%	nt	10%
CCOC(=O)c1cccc(C2=CC(=O)C[C@H](c3ccc(OC)c(OC)c3)C2)c1	0.3%	-36%	nt	1.6	0.9%	nt	nt
CCOc1ccc(C2CC(c3ccc(OC)c(OC)c3)n3nc(N)nc3N2)cc1 (stereo unspecified)	2.2%	2%	-16%	-0.2	2.5%	0.0	?
O=C(CCCN1C(=O)CSc2ncccc21)N1CCN(Cc2ccccc2)CC1	-1.4%	0%	6%	-2.5	4.1%	-0.4	-38%
CC(C)Oc1ccc(Cc2cnc(N)nc2N)cc1	-0.4%	-2%	-4%	-0.8	-3.2%	1.1	-32%[inhibitor]
Cc1ccc(S(=O)(=O)NC(C(=O)OCC(=O)NC2CCS(=O)(=O)C2)C(C)C)cc1 (stereo unspecified)	0.3%	4%	15%	-2.2	1.5%[38.3 µM]	2.3	-9%
Cc1c(-c2ccc(F)cc2)nc(N)c(C#N)c1-c1ccco1	?	12%	-1%	-1.4	nt	5.3	-28%
CCCCNC(=O)NNC(=O)c1ccc(F)cc1	-2.1%	15%	8%	-4.5	3.7%	2.4	-8%
COc1ccc(C2N(c3ccc(C)cc3)CCN2c2ccc(C)cc2)cc1O	nt	-12%	12%	-0.9	19%	-1.7	21%
CCOC(=O)C1CCN(C(=O)c2oc3ccc(S(=O)(=O)N4CCCCCC4)cc3c2C)CC1	1.3%	-32%	-6%	0.2	0.4%	3.2	-3%
O=C(OC(c1ccccc1)c1nccc2ccccc12)c1cc([N+](=O)[O-])cc([N+](=O)[O-])c1 (stereo unspecified)	3.3%	-6%	3%	?	-0.5%	0.5	-8%
Cc1ccc(C)c(NC(=O)COC(=O)CC2CC3CCC2C3)c1 (stereo unspecified)	nt	-3%	nt	-1.0	2.2%	nt	1%
Cc1ccc(Cc2c(-c3ccc(C)cc3)nc3c(C)cc(Br)cn23)cc1	-4.5%	nt	nt	-4.5	6.2%	nt	nt
CCCNC(=O)[C@@H]1CCCN1C(=O)[C@@H]1Cc2ccccc2CN1	-1.8%	-1%	2%	-1.9	1.9%	1.9	24%[15.4 µM]
CC1(C)Cc2c(cnn2-c2cccc(F)c2)C(NC(=O)Cn2cccn2)C1 (stereo unspecified)	1.0%	-2%	11%	-1.4	-3.1%	nt	27%
O=C(CSc1nnc(-c2cccnc2)o1)Nc1nccs1	0.2%	8%	nt	3.0	-1.0%	nt	-1%[15.4 µM]
Cc1c(C#N)c2ccccc2n1CC(=O)NCc1ccccc1	-3.5%	-1%	-7%	-0.8	-0.8%	0.7	-23%
CCCCC(C)Sc1nc2c([nH]1)c(=S)n(C)c(=O)n2C (stereo unspecified)	-2.0%	-12%	nt	-8.3	?	nt	6%
O=C(CC1NC2CCCCC2NC1=O)Nc1cccc(C(F)(F)F)c1 (stereo unspecified)	-4.1%	7%	12%	-2.4	-0.5%	-2.1	-31%
Cc1cc(OC(=O)c2c(C)cc(O)cc2O)cc(O)c1C(=O)O	-2.1%	-3%	-8%&-5%	-2.5	0.9%	13&3.9	nt
Cc1c(NC(=O)c2cc(-c3ccccc3)on2)c(=O)n(-c2ccccc2)n1C	-0.1%	4%	9%	-1.9	-0.5%[38.3 µM]	5.2	-3%
O=C1c2ccccc2C(=O)c2cc(NC(=O)C3CC3)ccc21	2.5%	-8%	-2%	-4.8	9.9%	2.7	13%
Nc1cccc(Oc2ccc3c(c2)C(=O)NC3=O)c1	nt	5%	0%	-0.8	3.2%	-5.4	-41%[inhibitor]
COc1ccc(NC(=O)Nc2ccc3oc(C)nc3c2)cc1	nt	3%	7%	-4.9	0.3%	0.8	-5%[15.4 µM]
OCCn1c(-c2ccccc2)csc1=Nc1ccccc1	-1.0%	-8%	-9%	0.3	-1.5%	1.0	14%
COc1ccc(CNC(=O)CC2C(=O)NCCN2C2Cc3ccccc3C2)cc1 (stereo unspecified)	-2.2%	4%	13%	1.7	1.2%	nt	6%[15.4 µM]

The list continues.
canonical_smiles	ClpP mod	gsp antagonist	Sfp inh	D2 ag	PINK1 modulator	Menin-MLL FL inh	gsp agonist
Cc1ccc(C(=O)Nc2ccc3nc(C)sc3c2)s1	-1.7%	4%	-6%	-2.7	0.3%	5.5	0%
O=C(Nc1c2c(nn1-c1ccccc1)CS(=O)(=O)C2)c1ccco1	-0.7%	9%	3%	-3.3	-0.5%	nt	-7%
CC(C)(C)C(=O)Nc1ccccc1C(=O)NCCC(=O)Nc1ccccc1	-3.1%	5%	nt	0.4	2.3%	nt	1%
Cc1ccc2c(nc3s/c(=C/c4cccs4)c(=O)n32)c1C	0.6%	4%	-20%	-0.6	?	?	-16%
COc1ccc(N2CCN(C(=O)c3c(C)nn(-c4ccccc4)c3C)CC2)cc1	-2.1%	3%	10%	0.4	1.3%	1.9	8%
O=S(=O)(c1ccc(F)cc1)N1CCN(C(=S)NC2CCCC2)CC1	-29%	7%	-1%	-0.4	-1.9%	-0.3	3%
CN(CCc1ccccc1)C(=O)c1ccc(NC(=O)Cc2cccc(NC(=O)C3CCN(S(=O)(=O)c4cccc([N+](=O)[O-])c4)CC3)c2)cc1	1.4%	-1%	nt	4.4	1.9%	nt	nt
COc1ccc(NC(=O)CSCc2cc(=O)n3nc(C4CC4)sc3n2)cc1	-1.2%	-1%	10%	9.1	2.0%	nt	16%
O=C(CN(Cc1ccco1)C(=O)CNS(=O)(=O)c1ccccc1)NCc1ccc(F)cc1	-1.1%	-2%	15%	-2.4	-2.8%	-3.6	?
